High-throughput results deposited in PubChem BioAssay by ICCB-Longwood Screening Facility, Harvard Medical School.
GIV-Gai inh: blocks GIV peptide binding to rat Galpha-i3; P08753; Galpha-i3/FITC-GIV peptide fluorescence polarization, 90 min; active compounds read low; scaled: aluminum fluoride 0%, vehicle 100%; percent of control (FP), % (concentration not given with the values); 210,000 compounds, 0.42% hits; AID 1224905;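 active = replicate mean at 85% of control or lower, very high polarization wells dropped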;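 also: wells of about 15 µL received 100 nL stock; the first replicate is given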
Target sequence (P08753 whole entry, looked up): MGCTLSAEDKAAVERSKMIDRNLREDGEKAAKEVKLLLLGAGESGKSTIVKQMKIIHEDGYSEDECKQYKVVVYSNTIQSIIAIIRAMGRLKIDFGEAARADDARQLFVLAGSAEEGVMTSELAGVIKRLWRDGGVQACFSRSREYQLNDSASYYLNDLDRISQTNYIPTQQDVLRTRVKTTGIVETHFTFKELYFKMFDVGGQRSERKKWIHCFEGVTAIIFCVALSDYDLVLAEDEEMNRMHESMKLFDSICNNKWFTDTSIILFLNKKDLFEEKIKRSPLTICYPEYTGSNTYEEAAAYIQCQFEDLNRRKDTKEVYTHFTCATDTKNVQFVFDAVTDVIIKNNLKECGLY
An asterisk follows results filed as active. The list is partial; count on the stated rates, not on these rows.

The first five compounds, to show the layout:
item	Structure	GIV-Gai inh
1	Cc1ccc(N2CC(C(=O)Nc3cc(-c4nc(C)cs4)sc3C)CC2=O)cc1 (stereo not given)	100
2	COc1cccc(CNC(=O)C2(C)CCCN(S(=O)(=O)c3ccc(C(C)(C)C)cc3)C2)c1 (stereo not given)	105
3	CCOC(=O)C1=C(N)n2c(s/c(=C\c3ccc(Br)cc3)c2=O)=C(C(=O)OCC)C1c1ccc(Br)cc1 (stereo not given)	122
4	COc1cc([C@@H]2[C@@H](C(=O)c3ccccc3)N3c4ccccc4C=C[C@@H]3C2(C#N)C#N)cc(OC)c1OC	119
5	COc1ccc(NC(=O)c2sc3ncn(CC(=O)Nc4ccc(C)c(Cl)c4)c(=O)c3c2C)c(OC)c1	108

The listing, from the start:
item	Structure	GIV-Gai inh
1	Cc1ccc(N2CC(C(=O)Nc3cc(-c4nc(C)cs4)sc3C)CC2=O)cc1 (stereo not given)	100
2	COc1cccc(CNC(=O)C2(C)CCCN(S(=O)(=O)c3ccc(C(C)(C)C)cc3)C2)c1 (stereo not given)	105
3	CCOC(=O)C1=C(N)n2c(s/c(=C\c3ccc(Br)cc3)c2=O)=C(C(=O)OCC)C1c1ccc(Br)cc1 (stereo not given)	122
4	COc1cc([C@@H]2[C@@H](C(=O)c3ccccc3)N3c4ccccc4C=C[C@@H]3C2(C#N)C#N)cc(OC)c1OC	119
5	COc1ccc(NC(=O)c2sc3ncn(CC(=O)Nc4ccc(C)c(Cl)c4)c(=O)c3c2C)c(OC)c1	108
6	CCN(CC)S(=O)(=O)c1ccc(C(=O)Nc2c3c(nn2-c2ccc(F)cc2)CSC3)cc1	116
7	CCOc1ccc(-c2noc(CSc3nccn3-c3ccccc3)n2)cc1OC	108
8	Cc1nc(CN2C(=O)COc3ccc(S(=O)(=O)NCC4CCCO4)cc32)no1 (stereo not given)	103

Later entries
item	Structure	GIV-Gai inh
9	Cc1nc(S(=O)(=O)N2CCC(c3cc4n(n3)CCCN(C)C4=O)CC2)cn1C	99
10	CC1=C(C(=O)OC(C)(C)C)C(c2ccco2)C(C#N)=C(N)O1 (stereo not given)	115
11	CCC(C)NC(=O)c1cccc(Oc2cc(-c3ccccc3)ncn2)c1 (stereo not given)	103
12	CCc1onc(C)c1C1CCCN1C(=O)c1cc(C2CC2)on1 (stereo not given)	99
13	CCOC(=O)c1c(C)[nH]c(CCC(=O)Nc2cc(-c3cccc(F)c3)no2)c1C	107
14	O=S(=O)(Cc1nc(-c2ccc(Br)cc2)no1)c1ccc(F)cc1	105
15	CC(C)(C)c1ccc(C(=O)Nc2ccc(S(=O)(=O)N3CCCCC3c3cccnc3)cc2)cc1 (stereo not given)	114
16	CCOc1ccccc1OC(=O)c1cc2c(C)nn(-c3ccccc3)c2s1	103

Continued:
item	Structure	GIV-Gai inh
17	Cc1sc(-c2cc(C(F)(F)F)on2)cc1S(=O)(=O)NCc1ccccc1Cl	96
18	CCCCNC(=O)C1CCCN(C(=O)Nc2ccc(S(=O)(=O)N(CC)CC)s2)C1 (stereo not given)	100
19	O=[N+]([O-])c1ccc(N2CCN(S(=O)(=O)c3cccc4nsnc34)CC2)cc1	123
20	Cc1ccc(COc2ccc(C3CC(=O)Nc4c3cnn4-c3ccc4nnc(C)n4n3)cc2)cc1 (stereo not given)	101
21	Nc1nc(COc2ccccc2Cl)nc(N2CCOCC2)n1	105
22	COc1cc(C2C(C#N)=C(N)Oc3n[nH]c(-c4ccccc4)c32)ccc1OC(=O)N1CCOCC1 (stereo not given)	105
23	COc1ccc(NC(=O)Cn2cccc2-c2nnc(-c3ccccc3)o2)c(OC)c1	102
24	O=C(c1csc(S(=O)(=O)NC2CCCCC2)c1)N1CCCC1	98

Following part.
item	Structure	GIV-Gai inh
25	COc1ccc(C2C(C(=O)OCC3CCCO3)=C(C)NC3=C2C(=O)CC(c2cccs2)C3)cc1OC (stereo not given)	112
26	CC1(C)CC(N2C(=O)OC(C)(C)C2(C)O)CC(C)(C)N1 (stereo not given)	111
27	COCc1cc(=O)n2c(n1)N(Cc1c(C)noc1C)CC2	99
28	N#CC1=C(N)C(C#N)(C#N)[C@@H](c2ccccc2C(F)(F)F)[C@@H]2CCCC=C12	112
29	CCOC(=O)c1[nH]c(C)c(CN(Cc2ccc(OC)cc2)S(=O)(=O)c2ccc(C)cc2)c1C	107
30	O=C(CSc1nc2ccccc2[nH]1)Nc1nc2c(ccc3ccccc32)s1	105
31	O=C(Nc1ccc(Cl)cc1)N1CCN(Cc2cc(=O)n3nc(-c4ccc(F)cc4)sc3n2)CC1	100
32	Oc1ccccc1-c1cc(Cl)ncn1	105

(continued)
item	Structure	GIV-Gai inh
33	CC1=C(C(=O)OCc2ccccc2)C(c2coc3ccc(Cl)cc3c2=O)C2=C(CCCC2=O)N1 (stereo not given)	97
34	CCOc1ccc(C2=NN3C(C2)c2cc(Cl)ccc2OC3c2ccc(OC)cc2)cc1 (stereo not given)	102
35	CCc1nc(-c2csc(S(=O)(=O)N3CCCC(C(=O)Nc4cc(C)on4)C3)c2)no1 (stereo not given)	106
36	Cn1c(=O)c2c(nc3n(Cc4ccco4)c(-c4ccc(Cl)cc4)cn23)n(C)c1=O	110
37	O=C(COc1ccccc1)NC(c1ccccc1)c1cc(Cl)c2cccnc2c1O (stereo not given)	105
38	CN(CC(=O)N1CCOCC1)c1nc(C2CC2)nc2c1CCC2	98
39	Cc1ccc(-c2noc(C3CCCN3S(=O)(=O)c3ccc(C(C)C)cc3)n2)cc1 (stereo not given)	97
40	Cn1c(=O)n(Cc2ccc(Cl)cc2)c(=O)c2cnc(-c3cccnc3)nc21	106

Following part.
item	Structure	GIV-Gai inh
41	Cc1c(N=Cc2ccccc2)c(=O)n(-c2ccccc2)n1C	108
42	O=S(=O)(Nc1cc2c3c(oc2c2ccccc12)CCCC3)c1ccc(Cl)cc1	107
43	COc1ccc(NC(=O)c2cc3nc(-c4ccc(C)cc4)cc(C(F)(F)F)n3n2)cc1	104
44	COc1cc(OC)cc(C(=O)N2c3ccccc3Sc3ccccc32)c1	113
45	O=C1C(=O)N(CCCN2CCOCC2)C(c2cccc(Br)c2)/C1=C(\O)c1ccccc1 (stereo not given)	102
46	COc1ccc(-n2nnc(-c3nsc(Nc4cccc(Cl)c4)n3)c2C)cc1	105
47	CC(C)c1ccc(S(=O)(=O)c2cnc(N3CCC(N4CCCCC4)CC3)nc2N)cc1	105
48	CCn1c(=O)c(=O)n(CC)c2cc(S(=O)(=O)c3ccc(F)cc3)c(N)cc21	108

Later entries
item	Structure	GIV-Gai inh
49	CCCS(=O)(=O)N1CCCC1c1cc(C(C)C)on1 (stereo not given)	94
50	O=c1[nH]c2c(-c3ccccn3)nsc2c(=O)n1C1CC1	99
51	CC(=O)Nc1ccc(O[C@@H]2O[C@H](COC(C)=O)[C@@H](OC(C)=O)[C@H](OC(C)=O)[C@H]2NC(C)=O)cc1	110
52	O=C(c1snc2c(=O)n(Cc3ccccc3)cnc12)N1CCN(c2ccccn2)CC1	102
53	COc1ccccc1NC(=O)c1c(NC(=O)c2ccccc2F)sc2c1CCCCC2	108
54	Cc1cc(C2CCCN2C(=O)NC(C)C)on1 (stereo not given)	100
55	Cc1ccc2c(c1Br)C1(C(=O)N2)C(C#N)=C(N)OC2=C1C(=O)CC(c1ccco1)C2 (stereo not given)	110
56	Cc1ccc(-n2ccc(=O)c(-c3nc(-c4ccc5c(c4)OCO5)no3)n2)cc1	100

Following part
item	Structure	GIV-Gai inh
57	CC(C)S(=O)(=O)c1cc2c(cc1NC(=O)c1ccc(C(C)(C)C)cc1)n(C)c(=O)c(=O)n2C	102
58	COc1ccc(C2C(C#N)=C(N)N(N(C)C)C3=C2C(=O)CC(c2ccccc2)C3)cc1OC (stereo not given)	102
59	O=C(Cc1cccs1)N1CCN(c2ncnc3c2CCC3)CC1	102
60	COc1ccc(CCNC(=O)CCn2c(SCc3cc(=O)n4ccccc4n3)nc3ccccc3c2=O)cc1OC	111
61	CCCc1ccc(-c2c3c(c(-c4ccccc4)n2-c2ccc(N)cc2)C(=O)c2ccccc2C3=O)cc1	101
62	Cn1c(=O)c2c(ncn2CC(=O)c2ccccc2)n(C)c1=O	113
63	CCCc1cc(C2CCCN2C(=O)c2c(-c3c(F)cccc3Cl)noc2C)no1 (stereo not given)	105
64	COC(=O)c1ccc2c(c1)nc(SCc1cc(=O)n3cc(Cl)ccc3n1)n1c3ccccc3nc21	108

Remaining list, next part.
item	Structure	GIV-Gai inh
65	Cc1ccc(-c2csc(Cc3nc(-c4ccccc4)no3)n2)cc1C	109
66	Cc1c(C)n(-c2ccccc2)c2nc(C(=O)Nc3ccccc3Cl)nc(N3CCCC3)c12	98
67	COCCNC(=O)c1ccc(Cn2c(SCC(=O)Nc3cc(C)on3)nc3ccc(Br)cc3c2=O)cc1	102
68	Cc1sc(-c2nc(-c3ccc(F)cc3)no2)cc1S(=O)(=O)NCc1ccc2c(c1)OCO2	102
69	COc1cc(C2C=C(c3cccs3)Nc3ncnn32)cc(OC)c1OC (stereo not given)	-0.1*
70	CC(=O)OCC1OC(OC(C)=O)C(NC(=O)c2ccccc2OC(C)=O)C(OC(C)=O)C1OC(C)=O (stereo not given)	105
71	Nc1c(C(=O)Nc2ccc([N+](=O)[O-])cc2)sc2nc3c(c(-c4ccco4)c12)CCC3	106
72	N#Cc1c(-c2ccc(F)cc2)cc(-c2cccs2)nc1SCC(N)=O	116

Next section
item	Structure	GIV-Gai inh
73	O=c1c2cn[nH]c2[nH]c(=S)n1-c1ccc(Cl)c(Cl)c1	109
74	NS(=O)(=O)c1ccc(CCNC(=O)CSc2nc(NCc3ccccc3)c3ccccc3n2)cc1	97
75	Cc1ccc(N(C)S(=O)(=O)c2ccc3[nH]cc(C(=O)NCCCN4CCOCC4)c(=O)c3c2)cc1C	104
76	Cc1ccc(C)c(-n2c(CNC(=O)c3ccc(S(=O)(=O)N4CCCC4)cc3)nnc2SCC(=O)Nc2nccs2)c1	108
77	Cc1ccccc1CSc1nnc2c(S(=O)(=O)N3CCCC3)cccn12	105
78	CCOC(=O)Nc1ccc2c(c1)N(C(=O)C(C)N1CCCC1)c1ccccc1CC2 (stereo not given)	100
79	Cc1c(N=Cc2ccc(C=Nc3c(C)n(C)n(-c4ccccc4)c3=O)cc2)c(=O)n(-c2ccccc2)n1C	105
80	COC(=O)C1=C(C(=O)OC)SC(=C2C(=S)C(C)(C)N(C(=O)c3cccc(OC)c3)c3c(C)cccc32)S1	108

Another view of 4 compounds above:
78. CCOC(=O)Nc1ccc2c(c1)N(C(=O)C(C)N1CCCC1)c1ccccc1CC2 (stereo not given)
  GIV-Gai inh: 100
80. COC(=O)C1=C(C(=O)OC)SC(=C2C(=S)C(C)(C)N(C(=O)c3cccc(OC)c3)c3c(C)cccc32)S1
  GIV-Gai inh: 108
74. NS(=O)(=O)c1ccc(CCNC(=O)CSc2nc(NCc3ccccc3)c3ccccc3n2)cc1
  GIV-Gai inh: 97
73. O=c1c2cn[nH]c2[nH]c(=S)n1-c1ccc(Cl)c(Cl)c1
  GIV-Gai inh: 109

The list goes on:
item	Structure	GIV-Gai inh
81	O=C(Nc1ccc(Br)cc1F)C1Oc2ccccc2NC1=O (stereo not given)	95
82	COc1ccc(OC)c(C2Oc3c(OC)cccc3C3CC(c4cccs4)=NN32)c1 (stereo not given)	111
83	O=C(NCc1ccccn1)C1CCN(c2ncccc2-c2nc(-c3ccccc3)no2)CC1	103
84	Cc1cc(C)c2c(c1)-c1c(ssc1=S)C(C)(C)N2C(=O)c1ccccc1	115
85	O=C(CSc1nnc(-c2cccnc2)n1Cc1ccco1)c1ccc(Br)cc1	99
86	Cc1cccc(NC(=O)C2CC2(c2ccccc2)c2ccccc2)c1C (stereo not given)	111
87	O=C(C1CCN(c2nccc3c2ccn3Cc2ccccc2)CC1)N1CCN(c2ccc(F)cc2)CC1	107
88	Cc1nnc(SCC(=O)NCc2ccc3c(c2)OCCCO3)n1-c1ccccc1	103

(more compounds)
item	Structure	GIV-Gai inh
89	O=C(NCC(=O)N1CCN(c2ccccc2)CC1)c1ccc(F)cc1	105
90	Cc1c(CN2CCC3(CC2)OCCO3)nnn1-c1ccc(F)cc1	100
91	O=C(CCc1nc(N2CCCCC2)c2c(-c3ccc(F)cc3)noc2n1)NCCc1cnc[nH]1	102
92	COc1cccc(N/C(SC)=C(/C#N)C(N)=O)c1	103
93	O=C(Nc1ccc(Cl)c(Cl)c1)c1nn2c(c1Br)NC(c1ccccc1)CC2C(F)(F)F (stereo not given)	106
94	O=C(NCC(=O)N1CCC(NS(=O)(=O)c2ccccc2)CC1)c1ccccc1	98
95	O=C(Cn1ncn2nc3c(c2c1=O)CCCC3)NCc1ccccc1	107
96	COc1ccc(/C=C2\C=C(c3ccccc3)N(c3ccc(Cl)c(C(=O)O)c3)C2=O)cc1Br	109

Continuation.
item	Structure	GIV-Gai inh
97	CCOc1ccc(NC(=O)CSc2nc3ccccc3c(=O)n2NS(=O)(=O)c2ccc(C)cc2)cc1	102
98	Cc1cc(SC(C)C(=O)N2CCc3ccccc32)nc2ccc(S(=O)(=O)N3CCCC3)cc12 (stereo not given)	106
99	COCCN1CCc2nc(SCc3ccc(F)cc3Cl)[nH]c(=O)c2C1	97
100	COc1cc(OC)c(OC)cc1/C=C1\N=C(c2cccc(Br)c2)OC1=O	172
101	Cc1cc(C)c(S(=O)(=O)NCCc2nc(-c3ccc(F)cc3)n[nH]2)cc1C	109
102	CCc1ccccc1N=CC12c3ccccc3C(c3ccccc31)C1C(=O)N(c3ccccc3Cl)C(=O)C12 (stereo not given)	106
103	COc1ccc(C2CC(=O)Nc3c2c(C)nn3-c2nc3ccccc3o2)cc1Br (stereo not given)	105
104	CCn1cnc2cc(-c3noc(CNC(=O)c4ccc(C)cc4)n3)ccc21	101
105	Cc1ccc(S(=O)(=O)Oc2ccc(C3c4c(n(C)c(=O)n(C)c4=O)N=C4c5ccccc5C(=O)C43)cc2)cc1 (stereo not given)	110
106	COc1cc(OC)c(C2Nc3cccc4cccc(c34)N2)cc1OC	111
107	Cc1nc(Nc2ccc3[nH]c(=O)[nH]c3c2)nc(Nc2ccc3[nH]c(=O)[nH]c3c2)c1[N+](=O)[O-]	103
